Screening results (PubChem BioAssay)
ALR inh: inhibitors of human ALR sulfhydryl oxidase, primary screen, biochemical, H2O2 detection, HRP-luminol luminescence, single point. hit rate 3.8% among 290,000. inhibition, % (no concentration beside the values). purified ALR, DTT oxidation. AID 485317, 2010;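 active = mean and each replicate at 75% or more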;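 note: stock transfer was 7.5 nL into about 7.5 µL; 0% = neutral wells and 100% = wells with inactivated enzyme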
LANA-H2A inh: blockers of LANA interaction with H2A/H2B – biochemical, FP readout, HTS, primary screen; inhibition, % (test concentration not listed); Protein LANA1 (Human herpesvirus 8 type P (isolate GK18)), Q9QR71; hit rate 0.6% among 320,000; cell-free LANA-H2A/H2B peptide, fluorescence polarization; in the data active = inhibition mostly above about 10%, no sharp cut-off; inactive = mostly below about 6.7%;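 note: stock transfer was 7.5 nL into about 10 µL; 0% = median of vehicle wells and 100% = median of positive control wells; one replicate is shown; the record names a cut of 25% in any replicate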
HNF4A DNA FP: change in binding of human HNF4A to DNA, primary screen, biochemical, fluorescence polarization, FITC-DNA | Hepatocyte nuclear factor 4-alpha (Homo sapiens), P41235 | 1 h | activity change, % at 10 µM | hit rate 0.3% among 360,000 | AID 1224865, 2016; in the data active = activity change above about 30%, passing the limit was not always enough;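 note: controls were the assay level and a saturating level of protein; the project sought stronger binding though the title names inhibitors; some compounds called inactive have numbers as strong as hits; positive values seem to mean higher polarization but the record does not say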
Target sequence (P41235 whole entry, looked up): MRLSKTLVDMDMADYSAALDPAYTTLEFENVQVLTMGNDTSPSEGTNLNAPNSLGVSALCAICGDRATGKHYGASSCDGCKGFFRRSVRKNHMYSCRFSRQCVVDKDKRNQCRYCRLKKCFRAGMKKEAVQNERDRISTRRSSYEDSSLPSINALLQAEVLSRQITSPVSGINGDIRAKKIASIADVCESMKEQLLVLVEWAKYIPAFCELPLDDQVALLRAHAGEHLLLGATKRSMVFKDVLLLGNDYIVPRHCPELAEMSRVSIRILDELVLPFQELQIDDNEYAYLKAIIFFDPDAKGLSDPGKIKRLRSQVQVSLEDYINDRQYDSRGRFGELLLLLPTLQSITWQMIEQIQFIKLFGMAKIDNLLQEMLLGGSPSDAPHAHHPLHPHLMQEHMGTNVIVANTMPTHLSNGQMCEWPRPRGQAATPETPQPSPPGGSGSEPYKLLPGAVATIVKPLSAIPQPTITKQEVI
B2AR ag: beta2AR agonists driving receptor internalization, primary screen, cell-based, FAP fluorogen, flow cytometry | Beta-2 adrenergic receptor (Homo sapiens), P07550 | Am2.2-beta2AR cells; reference of the scale not given here | response, % (concentration not given with the values) | hit rate 0.43% among 340,000;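 active = response above a set limit, near 3 SD of response in nonfluorescent compounds, cut at about 42% in these data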;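 note: stock transfer was 100 nL into about 11 µL; a reference agonist was the positive control; negative values mostly stem from fluorescent compounds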
Target sequence (P07550 whole entry, looked up): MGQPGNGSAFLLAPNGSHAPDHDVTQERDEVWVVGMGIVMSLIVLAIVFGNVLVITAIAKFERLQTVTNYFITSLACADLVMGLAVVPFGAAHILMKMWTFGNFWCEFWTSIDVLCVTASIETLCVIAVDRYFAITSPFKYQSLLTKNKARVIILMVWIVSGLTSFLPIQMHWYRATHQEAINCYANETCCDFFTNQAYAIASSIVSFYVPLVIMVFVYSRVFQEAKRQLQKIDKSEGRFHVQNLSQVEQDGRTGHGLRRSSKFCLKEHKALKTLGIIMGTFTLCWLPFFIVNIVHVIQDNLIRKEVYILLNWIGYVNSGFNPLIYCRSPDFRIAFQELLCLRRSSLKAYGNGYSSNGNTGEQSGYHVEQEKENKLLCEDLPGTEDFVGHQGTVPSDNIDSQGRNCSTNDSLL
Ecoli growth: E. coli growth inhibition, primary screen, OD600. Escherichia coli growth, 23 h; hits give low values. OD600 absorbance (no concentration beside the values). hit rate 0.21% among 330,000;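 active = OD600 absorbance below the run mean of sample wells minus 3.6 SD, in any replicate, cut at about 0.56 in these data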;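 note: stock transfer was 300 nL into about 60 µL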
FGF22 binding: binders of human FGF22 protein, primary screen, FGF22 synaptogenesis inhibitor project, biophysical, thermal shift, single point; Fibroblast growth factor 22 (Homo sapiens), Q9HCT0; recombinant FGF22 thermal shift, SYPRO orange fluorescence; percent of sucrose octasulfate shift, DMSO zero; calls only at 9.99 µM; hit rate 1.5% among 340,000;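 active = melting point raised past a set limit in the mean and every replicate; three in four hits are not shown here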
Target sequence (Q9HCT0 whole entry, looked up): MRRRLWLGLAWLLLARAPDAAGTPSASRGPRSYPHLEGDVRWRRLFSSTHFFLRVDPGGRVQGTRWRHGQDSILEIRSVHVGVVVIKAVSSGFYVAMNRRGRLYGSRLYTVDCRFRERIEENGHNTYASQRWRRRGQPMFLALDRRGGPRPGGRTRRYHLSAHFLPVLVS
UCH37 DUB inh: inhibitors of human UCH37 deubiquitinase, primary screen, biochemical, Ub-AMC cleavage, fluorescence | Ubiquitin carboxyl-terminal hydrolase isozyme L5 (Homo sapiens), Q9Y5K5 | purified proteasome/UCH37 | inhibition, % (no concentration beside the values) | hit rate 0.33% among 330,000;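 active = mean of two replicates above 20%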;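 note: 0% = compound-free wells with enzyme and 100% = wells lacking proteasome; stock transfer was 100 nL into about 20 µL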
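system = Proteasome-associated human UCH37 deubiquitinase | amount = 0.15 nM proteasome as dispensed | medium = pH 7.4 Tris-HCl (50 mM) with ovalbumin, ATP-MgCl2, DTT | incubation = 30 min preincubation with enzyme, 25 min cleavage at room temperature | detection = AMC fluorescence 355/460 nm | read-out basis = percent inhibition | controls = no-proteasome and no-compound wells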
An asterisk follows results filed as active; i = inactive; nt = not tested or not shown.

SMILES	ALR inh	LANA-H2A inh	HNF4A DNA FP	B2AR ag	Ecoli growth	FGF22 binding	UCH37 DUB inh
COc1ccc2sc(-c3ccc(N(C)C)cc3)c(C#Cc3cncn3C)c2c1	-24	4.7	8.5	19	0.7	i	-376
CCCn1nc(C(=O)OCC(=O)Nc2ccc(C(N)=O)cc2)c2ccccc2c1=O	-12	2.9	0.4	4	0.66	i	-0.3
COc1ccc(C2CC2/C(=N/O)c2ccccn2)cc1 (stereo unspecified)	2	-1.0	4.0	-2	nt	i	nt
COc1ccccc1CNC(=O)CCc1nc2ccccc2c(=O)[nH]1	5	3.3	0.3	-7	0.72	nt	-0.6
CCNC(=O)c1cccc(NC(=O)c2cc(C3CC3)nc3c2cnn3C(C)C)c1	nt	nt	-0.6	20	0.64	i	4.3
Cc1ccc(C[n+]2cc(-c3ccc(Cl)cc3)n3c2CCC3)cc1	nt	-8.7	6.0	-4	0.66	i	5.3
Cc1cccc(NC(=O)N2CCCc3ccccc32)c1C	-12	-3.4	-3.1	2	0.7	i	5.6
O=C1CCN(Cc2ccccc2)CCN1CCSc1ccccc1	0	-3.2	5.9	0	0.69	i	0.4
O=C(O)c1ccc(CSc2nnc(-c3cccnc3)n2-c2ccc(Br)cc2)cc1	-4	-2.4	1.9	0	0.72	i	5.3
CCOC(=O)c1c(NC(=O)COC(=O)Cc2n[nH]c(=O)c3ccccc23)sc(C(=O)N(C)C)c1C	nt	1.5	3.0	5	0.71	i	3.0
CN(C)C(=O)c1c([N+](=O)[O-])ncn1C	-2	5.5	1.6	7	0.71	nt	5.2
CN(C)C(=O)c1ccc(N=Nc2c(O)c3ccccc3[nH]c2=O)cc1	nt	nt	1.4	-3	0.7	i	13
COc1ccc(NC(=O)C(NC(C)=O)C(=O)Nc2ccc(F)cc2)cc1 (stereo unspecified)	nt	4.9	1.0	-8	0.67	i	3.5
C=CCC(CC)C(=O)NC(=O)N1CCCc2ccccc21 (stereo unspecified)	-3	3.9	0.0	4	0.66	i	-0.5
CCOc1ccccc1NC1=C(Cl)C(=O)N(Cc2ccccc2)C1=O	-5	-1.7	-0.5	-4	0.7	nt	1.9
CCCS(=O)(=O)N1CCCC(C(=O)NCCN(CC)c2ccccc2)C1 (stereo unspecified)	99*	9.9	-1.9	16	0.69	nt	2.1
N#CCCn1cc(C(CC(=O)c2ccc(Br)cc2)C(=O)O)c2ccccc21 (stereo unspecified)	91*	-2.7	-3.7	9	0.77	nt	7.2
CN(C(=O)CC1C(=O)NCCN1Cc1ccccc1F)C1CCOCC1 (stereo unspecified)	-10	5.1	0.8	-4	0.69	i	-48
COc1cc(CN2CCCN(C)CC2)cc([N+](=O)[O-])c1O	nt	-1.8	-1.2	11	0.67	i	7.4
CCCCOc1ccc(C(=O)NN2CCOCC2)cc1	14	1.2	-3.0	-6	0.68	i	4.9
COCC(C)n1c(C)cc(C(=O)COC(=O)c2ccc3ncsc3c2)c1C (stereo unspecified)	-13	1.9	-1.7	4	0.7	nt	-1.5
Cc1cccc(C)c1NC(=O)CN(C1CCCCC1)S(C)(=O)=O	-23	-2.1	-1.0	9	0.69	i	2.6
O=C(c1ccc([N+](=O)[O-])o1)N1CCCCCC1	-25	4.2	-6.0	-2	0.59	i	3.5
CCOC(=O)N1CCN(S(=O)(=O)c2ccc3c(c2)CCN3C(=O)C2CC2)CC1	2	-4.2	-2.7	-1	0.72	nt	3.8
Cc1nn(C)c(Cl)c1NC(=O)OCc1ccccc1	-16	-0.8	0.4	0	0.73	nt	1.3
CCOC(=O)CC1C(=O)NCCN1C(=O)NC1CCCCC1 (stereo unspecified)	-1	-1.0	1.3	-1	0.74	nt	3.4
Cc1ccc(S(=O)(=O)N2CCCOC2CNC(=O)C(=O)NCc2ccccn2)cc1 (stereo unspecified)	-9	-6.1	3.4	-3	0.7	i	2.1
Cc1ccc(-n2ncc3c(=O)n(CC(=O)N(C(C)C)C(C)C)cnc32)cc1	-14	-0.9	-3.2	1	0.69	i	2.2
CCOC(=O)c1c(NS(C)(=O)=O)sc2c1CCC(C)C2 (stereo unspecified)	nt	1.9	-0.6	10	0.78	nt	-1.1
Nc1c2c(nc3c1CCC3)CCCC2	-2	-2.7	nt	nt	nt	nt	2.8
O=C(O)c1ccc(C2(c3ccc(C(=O)O)cc3)OC(=O)c3ccccc32)cc1	-9	-6.3	0.7	1	0.68	i	5.4
Cc1cccc(C)c1NC(=O)C(=O)NCCOc1ccc(Cl)cc1	-8	-2.2	3.9	2	0.67	nt	0.1
COc1ccc(N2CCn3c2nc2c3c(=O)n(CCCc3ccccc3)c(=O)n2C)c(OC)c1	-5	-0.3	0.9	12	0.69	nt	0.9
CCN(CC)C(=O)CSc1nc2cc(S(=O)(=O)N3CCOCC3)ccc2n1CC	-1	6.1	-1.6	-7	0.7	i	1.6
C/C(=N\NC(=O)CCc1ccccc1)c1ccc(Br)cc1	-3	-1.0	1.0	-3	nt	i	nt
O=C(Nc1ccccc1N1CCOCC1)c1ccc2c(c1)OCCO2	0	0.5	3.3	-3	0.73	nt	-0.9
Cc1nc2n(n1)CC(O)CS2 (stereo unspecified)	-12	1.9	2.1	-3	0.65	nt	1.7
CN(c1ccc(OCC(=O)OCc2nnc(-c3ccccc3)o2)cc1)S(=O)(=O)c1ccc(Cl)cc1	4	8.4	7.8	17	0.72	i	0.9
CSc1ccc(C2CC(=O)Nc3c2c(=O)n(C)c(=O)n3C)cc1 (stereo unspecified)	0	1.9	-5.3	-3	0.72	i	2.2
Cc1ncsc1CCC(=O)N1CCCC(C(=O)c2cccc(Cl)c2)C1 (stereo unspecified)	9	-4.8	-1.9	9	0.67	i	2.6
Cc1nc(CCNC(=O)COc2ccccc2)cs1	8	5.7	-1.8	-6	0.72	i	-1.1
Cc1cc(C(=O)O)c(CSc2ncn[nH]2)o1	27	1.4	0.3	-1	0.7	nt	-4.1
CSc1ccccc1NC(=O)CN(c1cccc(C)c1)S(C)(=O)=O	-3	12	1.5	-4	0.73	i	4.4
COc1ccc(-c2nsc(SCC(=O)NCC3CCCO3)n2)cc1 (stereo unspecified)	95*	-1.1	0.5	0	0.72	i	-0.2
O=[N+]([O-])c1cc(/C=N/OCc2c(Cl)cccc2Cl)ccc1N1CCOCC1	-9	-2.6	0.1	2	nt	nt	nt
COc1ccc(CC(=O)Nc2ccc(NC(=O)c3ccccc3F)cc2)cc1	-18	4.2	-0.2	6	0.69	i	-1.7
O=C(Nc1ccc(O)c(-c2nc3ccccc3o2)c1)C1(c2ccc(Br)cc2)CCCC1	-7	2.6	4.8	-3	0.69	nt	-4.3
Cc1sc2nc(C)n(/N=C/N(C)C)c(=O)c2c1C	-7	2.6	1.1	15	nt	i	nt
CC12CCC(C(=O)NCc3ccc(Cl)cc3)(OC1=O)C2(C)C (stereo unspecified)	0	2.8	0.9	-8	0.65	nt	0.4
c1ccc2c(c1)OCC(c1nnc3n1-c1ccccc1SC3)O2 (stereo unspecified)	6	17*	0.4	1	0.74	nt	-4.7

Additional records:
SMILES	ALR inh	LANA-H2A inh	HNF4A DNA FP	B2AR ag	Ecoli growth	FGF22 binding	UCH37 DUB inh
Cc1ccc(CSc2nnc(C)c(=O)n2N)cc1	-1	-0.5	3.0	1	0.7	i	0.3
CC(C)CCNC(=O)c1ccc2nc[nH]c2c1	-9	-0.3	-1.9	4	0.7	nt	-1.2
COc1ccc(S(=O)(=O)N2CC(O)CC2C(=O)OCc2nc3sc(C)c(C)c3c(=O)[nH]2)cc1 (stereo unspecified)	-37	2.5	25	8	0.68	nt	1.3
C=CCn1c(N)cc(=O)nc1SCC(=O)N(c1ccccc1)c1ccccc1	5	-0.3	4.0	-10	0.66	i	4.2
CC(=O)Nc1sc2c(c1C(N)=O)CCCC2	54	3.3	1.0	-4	0.64	nt	0.8
CCOC(=O)c1c(N2C(=O)C3C4C=CC(O4)C3C2=O)sc2c1CCCC2 (stereo unspecified)	3	-1.5	1.4	4	nt	nt	nt
COc1ccc(C(=O)NCc2ccc3c(c2)cc(C)n3C)cc1	nt	1.3	0.6	-10	0.71	i	1.0
O=C(O)C1CC(=O)N(Cc2cccnc2)C1 (stereo unspecified)	-5	-3.2	5.7	3	0.63	i	1.8
O=C(CSCc1c(Cl)cccc1Cl)Nc1ccc2c(c1)OCO2	-6	-1.2	-0.8	1	0.74	nt	0.4
COc1ccc(CNC(=O)COC(=O)c2c(NC(C)=O)sc(C)c2C)cc1	-2	4.8	-0.3	1	0.66	i	0.2

As a working copy, 6 of the compounds above:
SMILES	ALR inh	LANA-H2A inh	HNF4A DNA FP	B2AR ag	Ecoli growth	FGF22 binding	UCH37 DUB inh
C=CCn1c(N)cc(=O)nc1SCC(=O)N(c1ccccc1)c1ccccc1	5	-0.3	4.0	-10	0.66	i	4.2
CC(=O)Nc1sc2c(c1C(N)=O)CCCC2	54	3.3	1.0	-4	0.64	nt	0.8
CCOC(=O)c1c(N2C(=O)C3C4C=CC(O4)C3C2=O)sc2c1CCCC2 (stereo unspecified)	3	-1.5	1.4	4	nt	nt	nt
COc1ccc(C(=O)NCc2ccc3c(c2)cc(C)n3C)cc1	nt	1.3	0.6	-10	0.71	i	1.0
O=C(O)C1CC(=O)N(Cc2cccnc2)C1 (stereo unspecified)	-5	-3.2	5.7	3	0.63	i	1.8
O=C(CSCc1c(Cl)cccc1Cl)Nc1ccc2c(c1)OCO2	-6	-1.2	-0.8	1	0.74	nt	0.4

Next part.
SMILES	ALR inh	LANA-H2A inh	HNF4A DNA FP	B2AR ag	Ecoli growth	FGF22 binding	UCH37 DUB inh
CCc1nnc(SCC(=O)Nc2ccccc2)nc1CC	0	-4.1	-2.0	-10	0.69	nt	2.1
CC1=NNC(=O)C1CC(=O)N/N=C/C(Br)=C/c1ccccc1 (stereo unspecified)	5	2.1	-2.6	-4	nt	i	nt
COc1ccccc1-c1cc(C(F)(F)F)nc(S(=O)(=O)CCCC(=O)Nc2cc(C)on2)n1	5	-1.3	-2.4	32	0.72	nt	-29
O=C1NC(=Nc2ccccc2Cl)SC1(CO)CO	-1	1.1	0.4	-3	0.66	i	-1.3
COCC(=O)N1CCCC(C(=O)c2ccc3c4c(cccc24)CC3)C1 (stereo unspecified)	1	-1.4	0.7	10	0.65	i	-148
CC(C)[C@H](NC(=O)c1ccco1)C(=O)OCC(=O)Nc1ccc(Cl)c(S(=O)(=O)N(C)C)c1	-4	4.1	2.0	3	0.68	i	2.2
C=CC[C@@H](CC(=O)N[C@H](CO)Cc1ccccc1)C(=O)N[C@@H](COC(=O)[C@@H](CC=C)Cc1ccc(F)cc1)Cc1ccccc1	-2	175*	-4.3	0	0.69	i	0.3
COc1cccc(CN(C)C(=O)CNC(=O)c2sc3ccccc3c2Cl)c1OC	-6	1.4	-1.5	-10	0.69	i	1.5
COC(=O)CSc1nc(N2CCCCC2)c2c(c1C#N)CCCC2	2	-1.6	-2.1	4	0.71	nt	-3.4
CC(C)(C)C(=O)NC1CC2CCCC(C1)N2C(=O)Nc1ccc(Cl)cc1 (stereo unspecified)	2	-1.8	-1.5	-3	0.64	i	4.7
O=C(COc1ncnc2c(Cl)cc(Cl)cc12)N1CCCCC1	-3	4.4	-1.4	-1	0.71	nt	-0.8
COc1ccc(NC2CCCN(C(=O)CCc3ccncc3)C2)cc1OC (stereo unspecified)	95*	-7.3	0.9	-6	0.66	i	5.3
CN1CCN(C(=O)c2cnn3c2NC(c2ccccc2)CC3C(F)(F)F)CC1 (stereo unspecified)	-9	-3.9	2.3	0	0.66	i	2.8
O=C(CN1C(=O)NC2(CCCCCC2)C1=O)N1CCC(Cc2ccccc2)CC1	-2	-2.0	1.9	-3	0.7	nt	3.5

Some of the compounds tested; count on the stated rates, not on these rows.
